Screens: PubChem BioAssay, ICCB-Longwood Screening Facility, Harvard Medical School
MgrA DNA FP: modulators of Staphylococcus aureus MgrA DNA binding | fluorescence polarization | inhibition, %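 (about 10 µg/mL by stock and volumes)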 | AID 602314 | 84,000 tested, 0.13% active;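 active means above 50% in either of two replicates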;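 further: 0% = protein plus DNA without compound and 100% = DNA alone without protein; higher means less MgrA bound to DNA so lower polarization; one replicate is shown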
Sa helicase inh: S. aureus DNA helicase inhibition; purified S. aureus helicase, fluorescence unwinding assay; about half of the hits fall short of the stated cut; inhibition, %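 (tested at about 80 µM)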; 120,000 tested, 0.05% active; AID 485395;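 active means both duplicates at 50% or more, or one of them with a favoured structure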;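 further: 0% = mean of negative control wells and 100% = mean of positive control wells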
Starred values were filed as active, the others as inactive; · = no result given. An excerpt; rates above refer to the full screens.

1: Cn1c(=O)n(C)c2cc(/C=C(/C#N)C(=O)NCc3ccco3)ccc21
2: CC1CC(C)(C)Nc2ccc(OC(=O)c3ccccc3)cc21 (stereo not given)
3: CCCC(=O)N(Cc1ccccc1)C(C)C
4: Cc1nn(C)c(C)c1NC(=O)c1ccc(Cl)cc1
5: O=C(O)c1cccnc1-c1ncccc1C(=O)O
6: COc1ccc(CCNC(=O)c2nnn(-c3cccc(C)c3)c2N)cc1OC
7: CC(=O)Nc1cc(C(N)=O)cc(C(N)=O)c1
8: Cc1ccc2[nH]c(=O)c(CN(C)C(=O)c3cccc(Cl)c3)cc2c1

| compound no. | 1 | 2 | 3 | 4 | 5 | 6 | 7 | 8 |
| --- | --- | --- | --- | --- | --- | --- | --- | --- |
| MgrA DNA FP | 2.7 | -1.6 | 10 | 5.2 | · | 0.0 | 2.4 | 4.0 |
| Sa helicase inh | 2 | -9 | 3 | -5 | 3 | 4 | · | 5 |

9: Cc1ccc2[nH]c(=O)c(CNCCCO)cc2c1
10: COc1ccc(S(=O)(=O)C2CS(=O)(=O)CC2O)cc1 (stereo not given)
11: O=C(CCN1C(=O)C2C3C=CC(C3)C2C1=O)Oc1cccc2cccnc12 (stereo not given)
12: Cc1ccc(/C=N/N2C(=O)c3ccccc3C2=O)o1
13: CCN(CC)Cc1c[nH]c2c(C(=O)OC)cccc12
14: COc1cccc2c1OC1(C)NC(=S)NC2C1C(=O)N(C)C (stereo not given)
15: CC(=O)N1CCCC1(C(=O)O)c1ccccc1 (stereo not given)
16: Cc1cc(C)c2nc(C(F)(F)F)nc(N3CC(C)OC(C)C3)c2c1 (stereo not given)

| compound no. | 9 | 10 | 11 | 12 | 13 | 14 | 15 | 16 |
| --- | --- | --- | --- | --- | --- | --- | --- | --- |
| MgrA DNA FP | 0.8 | 2.4 | 6.6 | · | · | -2.2 | · | -6.1 |
| Sa helicase inh | -1 | · | 6 | -3 | -22 | -3 | 2 | 29 |

17: CCCNC(=O)c1nnc(Cc2ccccc2OC)o1
18: COc1ccc(C(=O)CCC(=O)Nc2cccnc2)c(OC)c1
19: C=CCNc1oc(COc2ccccc2F)nc1C#N
20: CC(C)CNC(=O)CSc1nnc(-c2ccc(Cl)cc2)n1N
21: O=C1C2CC=CCC2C(=O)N1Nc1ccccc1 (stereo not given)
22: CC(C)c1nc2ccccc2n1C(C)c1ccccc1 (stereo not given)
23: Cc1nc(/N=C(/N)Nc2cccc(Cl)c2C)[nH]c(=O)c1Cc1ccccc1
24: O=C(Nc1ccc(OCc2ccccc2)cc1)Nc1cccnc1

| compound no. | 17 | 18 | 19 | 20 | 21 | 22 | 23 | 24 |
| --- | --- | --- | --- | --- | --- | --- | --- | --- |
| MgrA DNA FP | · | · | -2.9 | · | · | · | · | · |
| Sa helicase inh | 17 | 14 | 14 | 6 | -5 | -9 | -10 | 1 |

Another view of part of the listing above.
entry	SMILES	MgrA DNA FP	Sa helicase inh
19	C=CCNc1oc(COc2ccccc2F)nc1C#N	-2.9	14
20	CC(C)CNC(=O)CSc1nnc(-c2ccc(Cl)cc2)n1N	·	6
21	O=C1C2CC=CCC2C(=O)N1Nc1ccccc1 (stereo not given)	·	-5
22	CC(C)c1nc2ccccc2n1C(C)c1ccccc1 (stereo not given)	·	-9

Following part.
25: CCOC(=O)c1cc(C)n(-c2ccc(C(=O)N3CCc4ccccc43)cc2)c1C
26: CCOC(=O)c1sc(NC(=O)C(C)Sc2ncnc3ccccc23)c(C(=O)OCC)c1C (stereo not given)
27: CC(C)(C)c1cc2nc(C(F)(F)F)cc(N3CCN(C(=O)c4ccccc4)CC3)n2n1
28: COc1ccc(-c2cn[nH]c2C)cc1OC
29: Cc1c(C(=O)OCC(=O)NC2(C#N)CCCCC2)sc2nc3n(c(=O)c12)CCC3
30: CCc1ccc(NC(=O)CN2C(=O)CCc3ccccc32)cc1
31: Cc1oc2nc[nH]c(=O)c2c1C(=O)Nc1cccc(C(F)(F)F)c1
32: COC(=O)N/N=C/c1c[nH]c2ccccc12

| compound no. | 25 | 26 | 27 | 28 | 29 | 30 | 31 | 32 |
| --- | --- | --- | --- | --- | --- | --- | --- | --- |
| MgrA DNA FP | 0.6 | · | · | 1.4 | · | 0.6 | · | · |
| Sa helicase inh | 1 | 11 | -22 | · | -5 | 2 | -16 | 16 |

33: c1ccc(-c2nnn3c2nc(N2CCCCC2)c2ccccc23)cc1
34: Cc1ccc(-c2noc(CCCCCN=Cc3c(O)[nH]c(=O)[nH]c3=O)n2)cc1
35: CC(C)(C)NC(=O)CC(c1ccccc1)c1ccccc1
36: Cc1ccc(N2C(=O)CSC2=S)c(C)c1
37: CC1(C)CC(=O)N(CC(=O)N2CCN(c3cccc(C(F)(F)F)c3)CC2)c2ccccc2S1
38: O=C1N(c2ccccc2)C2CS(=O)(=O)CC2N1c1ccccc1 (stereo not given)
39: C/C(=C/c1ccccc1)C(=O)Nc1ccc2nc3n(c(=O)c2c1)CCCCC3
40: CSc1scc(-c2cc(Cl)cc(Cl)c2)c1C#N

| compound no. | 33 | 34 | 35 | 36 | 37 | 38 | 39 | 40 |
| --- | --- | --- | --- | --- | --- | --- | --- | --- |
| MgrA DNA FP | · | · | 0.0 | 0.2 | 0.4 | · | 3.1 | 1.1 |
| Sa helicase inh | 6 | -17 | 6 | 7 | 16 | -7 | 15 | · |

Next section, starting with the last 4 of the part before.
37: CC1(C)CC(=O)N(CC(=O)N2CCN(c3cccc(C(F)(F)F)c3)CC2)c2ccccc2S1
38: O=C1N(c2ccccc2)C2CS(=O)(=O)CC2N1c1ccccc1 (stereo not given)
39: C/C(=C/c1ccccc1)C(=O)Nc1ccc2nc3n(c(=O)c2c1)CCCCC3
40: CSc1scc(-c2cc(Cl)cc(Cl)c2)c1C#N
41: O=C(CSc1nccn1-c1ccc(Cl)cc1)NC1CCCC1
42: Cc1cc(C)nc(NNC(=S)NCc2ccc3c(c2)OCO3)n1
43: CC(C)(C)c1nc(N)sc1Br
44: COc1ccc2nc(SCC(=O)c3ccc(O)c(O)c3)[nH]c2c1
45: CCC1CCCCN1C(=O)c1cccs1 (stereo not given)
46: NC(=O)C1CCN(C(=O)COc2ccc3ccccc3c2)CC1
47: COC(=O)CSc1nnc(-c2ccc(Cl)cc2Cl)o1
48: O=S(=O)(Nc1ccccc1F)c1ccc2nc(-c3ccccc3)[nH]c2c1

| compound no. | 37 | 38 | 39 | 40 | 41 | 42 | 43 | 44 | 45 | 46 | 47 | 48 |
| --- | --- | --- | --- | --- | --- | --- | --- | --- | --- | --- | --- | --- |
| MgrA DNA FP | 0.4 | · | 3.1 | 1.1 | · | · | -1.5 | 4.7 | -0.4 | -3.3 | · | · |
| Sa helicase inh | 16 | -7 | 15 | · | 15 | 9 | · | 5 | 9 | -2 | 19 | 19 |

49: COc1ccc(OC)c2c(C)cc(C)nc12
50: COC(=O)/C(C#N)=C1\C=Cc2ccccc2N1
51: C#CCSc1nnc(-c2ccccc2)o1
52: Nc1ccc2oc(Cc3ccc(Cl)cc3)nc2c1
53: CNC(=O)Cn1ncc2c3ccccc3n(Cc3cccc(Cl)c3)c2c1=O
54: N#CC1(C#N)C(c2ccc(F)cc2)C(C(=O)c2ccccc2)C2C=Cc3ccccc3N21 (stereo not given)
55: CC1CCCN(C(=O)c2ccc3c(=O)n4nc(Nc5ccccc5)sc4nc3c2)C1 (stereo not given)
56: O=C1CCCCc2ccccc21

| compound no. | 49 | 50 | 51 | 52 | 53 | 54 | 55 | 56 |
| --- | --- | --- | --- | --- | --- | --- | --- | --- |
| MgrA DNA FP | · | -0.7 | 1.6 | -1.5 | · | -2.8 | · | · |
| Sa helicase inh | 15 | -3 | 4 | 0 | -127 | -2 | -17 | -8 |

57: O=c1c2cccc3c2c(nn1CN1CCCCC1)-c1ccccc1-3
58: CC(C)(C)C(=O)OCc1nc(-c2ccc(O)c(O)c2)cs1
59: Cc1ccc(NC(=S)C(C#N)C(=O)Nc2ccccc2C)c(C)c1 (stereo not given)
60: O=C(Oc1ccccc1)C1CCN(c2nc3ccccc3[nH]2)CC1
61: Cc1ccc(NC(=S)Nc2ccc(Cl)c(Cl)c2)cc1C
62: Cc1cc(C(=O)Nc2ccc(C)c(F)c2)n[nH]1
63: CNC(=O)CSc1nnc(-c2ccccc2F)n1CCc1ccccc1
64: Cc1cc(C)c(NC(=O)c2cc(S(=O)(=O)N3CCc4ccccc43)ccc2F)c(C)c1

| compound no. | 57 | 58 | 59 | 60 | 61 | 62 | 63 | 64 |
| --- | --- | --- | --- | --- | --- | --- | --- | --- |
| MgrA DNA FP | 1.8 | 2.1 | 2.7 | · | -1.4 | · | -2.4 | 0.9 |
| Sa helicase inh | 12 | · | · | 37 | · | -24 | -21 | 4 |

65: O=C(CN1C(=O)c2cccc3cccc1c23)N1CCCC1
66: CC1=C(C(=O)Nc2ccc(F)cc2)SCCO1
67: O=C(CCc1nnc2ccc(N3CCCCC3)nn12)NCCN1CCOCC1
68: CCn1c2ccccc2c2nnc(SCC(=O)NCCc3ccc(OC)c(OC)c3)nc21
69: CC1CC1C(=O)OCC(=O)Nc1ccc(Oc2ccccc2)cc1 (stereo not given)
70: Cc1ccc(SC(C(=O)c2ccccc2)C(=O)c2ccccc2)cc1
71: O=S(=O)(NCC1CCCO1)c1ccc(S(=O)(=O)N2CCN(c3ncccn3)CC2)cc1 (stereo not given)
72: Nc1cc(C(F)(F)F)ccc1-n1cnc2ccccc21

| compound no. | 65 | 66 | 67 | 68 | 69 | 70 | 71 | 72 |
| --- | --- | --- | --- | --- | --- | --- | --- | --- |
| MgrA DNA FP | 0.5 | · | · | · | 1.7 | · | · | 2.8 |
| Sa helicase inh | -1 | -32 | -6 | -7 | 5 | 13 | -16 | -19 |

Complete entries from above. Order of values: MgrA DNA FP, Sa helicase inh
Shown for Cc1ccc(SC(C(=O)c2ccccc2)C(=O)c2ccccc2)cc1 = ·, 13
Shown for Nc1cc(C(F)(F)F)ccc1-n1cnc2ccccc21 = 2.8, -19
Shown for O=S(=O)(NCC1CCCO1)c1ccc(S(=O)(=O)N2CCN(c3ncccn3)CC2)cc1 (stereo not given) = ·, -16
Shown for CC1=C(C(=O)Nc2ccc(F)cc2)SCCO1 = ·, -32
Shown for O=C(CCc1nnc2ccc(N3CCCCC3)nn12)NCCN1CCOCC1 = ·, -6

The list goes on:
73: Cc1noc(C)c1C(=O)NCC1COc2ccccc2O1 (stereo not given)
74: CC(C)CNC(=O)c1ccc(COc2ccc3ccccc3c2)o1
75: COc1cc(OC)c(C(=O)NC2CC3CCC2(C)C3(C)C)cc1OC (stereo not given)
76: CC1CCc2c(sc3nc(COC(=O)C4=NNC(=O)CC4)[nH]c(=O)c23)C1 (stereo not given)
77: COc1ccc(CC2(O)CCC3(CC2)OCCO3)cc1
78: COc1ccc2nc3c(nc2c1)C(=O)c1ccccc1C3=O
79: Cc1ccc(OCC(O)Cn2ccnc2C)cc1 (stereo not given)

| compound no. | 73 | 74 | 75 | 76 | 77 | 78 | 79 |
| --- | --- | --- | --- | --- | --- | --- | --- |
| MgrA DNA FP | · | -1.4 | · | · | -0.5 | -0.2 | · |
| Sa helicase inh | -9 | -1 | 12 | 5 | · | 14 | -3 |
